H5N1 antiviral: MDCK cell protection from H5N1 avian flu; cytopathic effect, luminescence, 72 h; stronger effect = higher value; no value below 0 was filed and about half of the inactive calls have no number; reference of the scale not given here; inhibition, % at 50 µM; 96,000 compounds, 0.07% hits; AID 740; in the data active = inhibition above about 25%
* hit, by the source's call; i = inactive. Not all compounds are listed; rates above refer to the full screens.

SMILES	H5N1 antiviral
Cc1cc(NC(=O)CSc2ccc(-c3ccccc3)nn2)no1	i
COc1ccc(-n2c(NCCN(C)C)nc3sc4c(c3c2=O)CCCCC4)cc1	i
O=C(CSCc1cccc(Br)c1)N/N=C/c1ccc2c(c1)OCO2	0.3
Cc1ccc(S(=O)(=O)N2CCN(C(=O)CN3CCCC3)C2)cc1	0.3
O=C(O)c1cc(-c2ccccc2Cl)n[nH]1	i
COc1ccc(CCC(C)Nc2cccc(F)c2)cc1 (stereo not drawn)	0.6
CCc1ccccc1NC(=O)CSc1nnc([C@@H](N)Cc2c[nH]c3ccccc23)o1	i
Cc1ccc(CNC(=O)C2CCCCC2C(=O)O)cc1 (stereo not drawn)	0.7
O=C(c1ccc(CS(=O)(=O)c2ccc(Br)cc2)o1)N1CCN(C2CCCCC2)CC1	0.3
C=C(C)c1cccc(C(C)(C)NC(=O)N2CCOCC2)c1	0.7
CCC(C)(C)n1nnnc1C(c1ccc(C)cc1)N(Cc1ccco1)Cc1cccs1 (stereo not drawn)	5.4
O=C(NCCN1CCCC1)c1ccc2c(c1)N(Cc1ccc(F)cc1)C(=O)c1ccccc1S2=O (stereo not drawn)	i
O=C(c1ccc2c(c1)OCCO2)C1CCN(S(=O)(=O)c2ccc(F)cc2)CC1	i
COc1ccc2nc(NC(=O)C3CCCN(S(=O)(=O)c4cccc5nonc45)C3)sc2c1 (stereo not drawn)	i
O=C(CSc1nc2ccccc2c(=O)[nH]1)N1CCN(S(=O)(=O)c2ccccc2)CC1	3.4
Cc1cc2c(s1)NC(=O)CN=C2c1cccs1	0.0
OC1(c2ccc3ccccc3c2)CCN(Cc2ccccc2)C1 (stereo not drawn)	i
COCCCNC(CC(=O)Nc1ccc(OC)cc1OC)C(=O)O (stereo not drawn)	i
Cc1ccc(NC(=O)C2CCN(S(=O)(=O)c3cccs3)CC2)cc1C	0.2
Cc1cccc(NC(=O)CN2C(=O)COc3ccc(Cl)cc32)c1C	0.1
COc1ccc(N(CC(=O)NCc2ccco2)S(=O)(=O)c2ccc(OC)c(OC)c2)cc1	i
COC(=O)c1ccc(C(=O)OC)c(NS(C)(=O)=O)c1	i
O=c1cc(N2CCN(c3ccccc3)CC2)[nH]c(=O)n1C1CCCCC1	i
COc1ccc(C(=O)Nc2nnc(-c3cccs3)s2)cc1	i
COc1cccc(/C=N/NC(=O)c2nc(-c3ccccc3)cc(-c3ccccc3)n2)c1	0.5
Remaining list, next part
SMILES	H5N1 antiviral
Cc1ccccc1NS(=O)(=O)c1ccc(C2CNC(=O)C2)cc1 (stereo not drawn)	0.4
COc1cc(OC)cc(-c2nnc(Sc3ccc(C=O)cc3[N+](=O)[O-])o2)c1	0.1
COc1ccc(C)cc1S(=O)(=O)Nc1cccnc1	0.3
O=c1[nH]nc(Cc2ccccc2)c2ccccc12	1.0
O=C(NCc1ccc2c(c1)OCO2)c1ccc(NC(=O)C2CCCO2)cc1 (stereo not drawn)	i
COCCN1C(=O)C(=O)/C(=C(/O)c2cccc(OC)c2)C1c1ccc(C)o1 (stereo not drawn)	0.2
Cc1ccc(CNC(=O)C2CC(c3ccccc3[N+](=O)[O-])=NO2)cc1 (stereo not drawn)	0.1
CCCCn1c(/N=C/c2c[nH]c3ccccc23)nc2ccccc21	i
COc1ccccc1Oc1ccccc1C(=O)O	0.6
CN(CCCNC(=O)C1CCN(S(=O)(=O)c2cccc3nsnc23)CC1)Cc1ccccc1	0.1
O=C(CC1SC(N2CCCCC2)=NC1=O)Nc1cccc(C(F)(F)F)c1 (stereo not drawn)	i
COC(=O)Cn1c(=NC(=O)C(C)C)sc2c(C)cc(C)cc21	1.4
Nc1nc(-c2ccccc2)cs1	i
Cc1cc(C)n(/N=C/c2c[nH]c3ccccc23)c(=O)c1C#N	i
COc1ccc(CCNC(=O)c2ccc(CS(=O)(=O)c3ccc(Cl)cc3)o2)cc1OC	i
Cc1ccc2c(c1)C1CN(C)CCC1N2CC(=O)N(C)c1ccccc1 (stereo not drawn)	i
COc1ccc2[nH]c(C)c(C(=O)CN3CCN(C/C=C/c4ccccc4)CC3)c2c1	i
O=C(COC(=O)c1cccs1)c1ccccc1	1.6
C=CCn1c(Cc2cccs2)nnc1SCC(=O)Nc1ccc(OC)c(OC)c1	i
CCOC(=O)CSc1nnc(Cc2ccc(OC)cc2)n1-c1ccccc1	1.2
COc1ccc(OC)c(NC(=O)CSc2nc(N)c(-c3ccccc3)c(=O)[nH]2)c1	i
Cc1ccc2[nH]c(=O)c(CN(CC3CCCO3)S(=O)(=O)c3cccc4nsnc34)cc2c1 (stereo not drawn)	i
CCc1nnc(NC(=O)CSc2nc3ccccc3s2)s1	0.1
CC1(C)OC(=O)C(=NNc2ccc(Cl)cc2)C(=O)O1	i
COc1ccc(NS(=O)(=O)c2cccc(C(=O)OCC(=O)Nc3cc(C)on3)c2)cc1	i
Additional compounds:
SMILES	H5N1 antiviral
COc1ccc(N2CCN(C(=O)CSc3ccccc3)CC2)cc1	1.1
O=C(CCN1C(=O)COc2ccccc21)N1CCC2(CC1)OCCO2	1.2
CCc1ccc2[nH]c(=O)c(CN(CCCN3CCOCC3)C(=O)Nc3ccccc3)cc2c1	i
O=C(c1cccc(Cl)c1)N1CCN(Cc2ccccc2F)CC1	i
CC(C)CCNC(=O)[C@@H](NC(=O)c1c(F)cccc1F)C(C)C	i
Cc1ccc(S(=O)(=O)N2CCCN(S(=O)(=O)c3ccc(C(F)(F)F)cc3)CC2)cc1	0.1
CCC(c1nnnn1CCOC)N1CCN(Cc2ccccc2)CC1 (stereo not drawn)	0.2
COc1cccc(-c2nnc(SCC(=O)OC(C)C)n2N)c1	1.4
Cc1ccccc1CS(=O)(=O)Cc1ccc(C(=O)N2CCC3(CC2)OCCO3)o1	1.4
CCCC(=O)NNC(=O)Nc1ccccc1	i
Cc1cc(C)n2nc(SCn3nnc4ccccc4c3=O)nc2n1	0.8
Cc1cc(C(=O)CSc2ccc(Cl)cc2)cc(C)c1OC(=S)N(C)C	i
O=C(CCN1C(=O)COc2ccccc21)NCc1ccco1	8.9
COc1ccc(/C=C\C(=O)c2c(O)ccc3c(C)cc(=O)oc23)cc1OC	0.1
O=C(Nc1ccc2c(c1)OCO2)C1CCCN(c2nc3ccccc3s2)C1 (stereo not drawn)	3.1
COC(=O)c1sc(NC(=O)COc2ccc(C)cc2)nc1C	0.4
CCOC(=O)c1oc2cccc(O)c2c1CN1CCOCC1	2.7
Cc1nnc(NC2(C(F)(F)F)C(=O)Nc3c2c(=O)n(C)c(=O)n3C)s1 (stereo not drawn)	0.0
Cn1c(=O)n(C/C=C/c2ccccc2)c(=O)c2c1nc1n2CCCN1c1ccc(F)cc1	i
COc1ccc2cc(C(=O)NCC(=O)O)sc(=O)c2c1OC	i
CN(N)c1nc(-c2ccccc2)nnc1C(F)(F)F	0.2
O=S(=O)(c1ccccc1Cl)N1CCCC1c1nc(-c2ccc(Cl)cc2)no1 (stereo not drawn)	0.9
O=S(=O)(c1cccs1)N1CN(Cc2ccc(Cl)cc2)c2nc3ccccc3nc21	i
Cc1ccc(S(=O)(=O)N2CCCC2C(=O)n2nc(C)cc2C)cc1 (stereo not drawn)	0.8
CCOC(=O)N1CCN(C(=O)c2cnsn2)CC1	i
(more compounds)
SMILES	H5N1 antiviral
CC(C)c1nc(SCC(=O)Nc2ccc3c(c2)OCCO3)c2c(=O)n(C)c(=O)n(C)c2n1	1.8
COc1ccc(CNc2ncnc(N)n2)cc1	0.3
Cc1nn(C(C)C(=O)NCc2ccccc2Cl)c(=O)c2c1sc1ccccc12 (stereo not drawn)	i
N#Cc1nc(-c2ccc(OCc3ccccc3)cc2)oc1NCCCN1CCOCC1	1.2
CCOc1cc(-c2noc(CCC(=O)N3CCOCC3)n2)ccc1OC	1.0
Brc1ccc(-c2noc(COc3ccc4c(c3)CCC4)n2)o1	i
CCC(C)(C)NC(=O)C(c1ccco1)N(C(=O)c1csnn1)c1cccc(F)c1 (stereo not drawn)	i
CN(C)c1ccc(C(=S)N2CCOCC2)cc1	0.0
COc1ccc(-n2c(Cc3cccn3C)nnc2SCC(=O)Nc2cccc(F)c2)cc1	i
CCCOc1ccc2[nH]cc(C(=O)O)c(=O)c2c1	i
Cc1cc(C)c2c(=O)[nH]c(SCC(=O)Nc3ccc(N(C)C)cc3)nc2n1	0.7
Cc1ccnn1CC(=O)N/N=C/c1ccco1	0.3
CC(C)Oc1ccc(CSC(=N)N)cc1	0.7
Cc1nnc(NC(=O)c2ccc(Br)cc2)s1	i
COC(=O)c1cc2ccsc2n1Cc1nc(-c2ccc(OC)cc2)oc1C	i
Cc1nn(Cc2ccccc2)c(C)c1C(=O)OCC(=O)NCc1ccco1	1.1
CCN(CC)C(=O)CN(c1cc(Cl)ccc1OC)S(C)(=O)=O	1.1
C=CCn1c(O)c(C(C)=NC2CC2)c(=O)[nH]c1=O	i
CCN1CCN(C(=O)c2nn(-c3ccc(C)cc3)c(=O)c3c2c2ccccc2n3C)CC1	3.9
COc1ccc(OC)c(NC(=O)c2sc3nc(Cc4ccccc4)cc(C(F)(F)F)c3c2N)c1	i
COc1ccc(C(=O)Oc2cc(/C=N/NC(N)=S)ccc2OC)cc1	i
CCOC(=O)n1c(SCC(N)=O)nc2ccccc21	i
O=C(Nc1ncc(Cc2ccc(SC(F)F)cc2)s1)c1ccccc1	i
Cc1ccnc(NS(=O)(=O)c2cccc3nsnc23)c1	i
Cc1ccc2cc(C)c(NCCO)nc2c1	i
The results go on:
SMILES	H5N1 antiviral
CSCCC1NC(=O)N(CC(=O)Nc2cccc3ccccc23)C1=O (stereo not drawn)	1.4
Cc1cc(-c2nc3cccnc3s2)ccc1NS(=O)(=O)c1ccc2c(c1)OCCO2	1.8
O=S(=O)(c1cccc(Cl)c1Cl)N1CCCCC1	0.7
O=C1c2ccccc2C(Nc2ccc(S(=O)(=O)N3CCOCC3)cc2)N1c1cccnc1 (stereo not drawn)	1.9
CCCCSc1nnc([C@H](C)NC(=O)OC(C)(C)C)o1	i
Cc1cccc(C)c1-n1nnnc1C1(Nc2ccccc2)CCCCC1	1.5
COc1cc(NC(=O)CN(c2ccc(C)cc2)S(=O)(=O)c2c(C)nn(C)c2C)cc(OC)c1	1.6
O=C1CS/C(=C\S(=O)(=O)c2ccc(Cl)cc2)N1	i
O=C(/N=C1\NC(=O)C(F)(C(F)(F)F)S1)NC1CCCCC1 (stereo not drawn)	i
COC(=O)c1c(NC(=O)CSc2nnnn2-c2ccccc2)sc2c1CCC(C)C2 (stereo not drawn)	1.2
CCN(Cc1ccccc1)C(=O)c1ccccc1C	1.6
Cc1ccn(CC(=O)O)c(=O)c1	0.9
CSc1nnc2c(n1)OC(c1cn(C)c3ccccc13)N(C(C)=O)c1ccccc1-2 (stereo not drawn)	1.1
Cc1cccc(Nc2nn3c(=O)c4ccccc4nc3s2)c1	i
Cc1ccc(Cn2c(SCCN3CCCCC3)nc3c2c(=O)[nH]c(=O)n3C)cc1	3.2
O=C(Nc1nc(-c2ccccc2)cs1)c1cccc([N+](=O)[O-])c1	1.1
O=C(NCC1CCCO1)/C(=C\c1ccc(Cl)cc1)NC(=O)c1ccccc1 (stereo not drawn)	i
Cc1cccc(-n2c(N)c(C(=O)N3CCN(C)CC3)sc2=S)c1	0.2
CCCC(=O)N1CC2(C)CN(C(=O)CCC)CC(CCC)(C1)C2=O	0.8
Cc1ccnc(NC(=O)COC(=O)C2COc3ccccc3O2)n1 (stereo not drawn)	i
CC(=O)c1c(C)nc2ccc(Cl)cn12	0.5
O=C(NCc1ccccc1)c1ccc(=O)[nH]n1	i
CCC(c1nc2ccccc2c(=O)n1CCCn1ccnc1)N1C(=O)c2ccccc2C1=O (stereo not drawn)	1.2
CCC(=O)N1CCc2cc(S(=O)(=O)CCC(=O)Nc3ccc(F)c(F)c3)ccc21	1.7
CCC(C)NC(=O)CSc1nc(-c2cccs2)cc(C(F)(F)F)n1 (stereo not drawn)	i
More results follow:
SMILES	H5N1 antiviral
O=C1CC(SC(=NCc2ccc3c(c2)OCO3)Nc2ccccc2)C(=O)N1 (stereo not drawn)	i
C=C(C)CSc1nnc(-c2ccc(C)cc2)n1N	i
CCCn1c(N)c(C(=O)CSc2nnnn2-c2ccc(O)cc2)c(=O)n(C)c1=O	i
COc1ccc(CC(C(=O)Nc2cccc(F)c2)c2nn[nH]n2)c(OC)c1 (stereo not drawn)	i
Fc1ccc(-c2cc3nc(-c4ccccc4)cc(N4CCN(CCN5CCOCC5)CC4)n3n2)cc1	i
COc1cccc(C2c3c(oc4ccccc4c3=O)C(=O)N2CCCN(C)C)c1OC (stereo not drawn)	0.6

Filtered by structure, the compounds so far containing a Cl atom
SMILES	H5N1 antiviral
O=C(O)c1cc(-c2ccccc2Cl)n[nH]1	i
Cc1cccc(NC(=O)CN2C(=O)COc3ccc(Cl)cc32)c1C	0.1
COc1ccc(CCNC(=O)c2ccc(CS(=O)(=O)c3ccc(Cl)cc3)o2)cc1OC	i
CC1(C)OC(=O)C(=NNc2ccc(Cl)cc2)C(=O)O1	i
O=C(c1cccc(Cl)c1)N1CCN(Cc2ccccc2F)CC1	i
Cc1cc(C(=O)CSc2ccc(Cl)cc2)cc(C)c1OC(=S)N(C)C	i
O=S(=O)(c1ccccc1Cl)N1CCCC1c1nc(-c2ccc(Cl)cc2)no1 (stereo not drawn)	0.9
O=S(=O)(c1cccs1)N1CN(Cc2ccc(Cl)cc2)c2nc3ccccc3nc21	i
Cc1nn(C(C)C(=O)NCc2ccccc2Cl)c(=O)c2c1sc1ccccc12 (stereo not drawn)	i
CCN(CC)C(=O)CN(c1cc(Cl)ccc1OC)S(C)(=O)=O	1.1
O=S(=O)(c1cccc(Cl)c1Cl)N1CCCCC1	0.7
O=C1CS/C(=C\S(=O)(=O)c2ccc(Cl)cc2)N1	i
O=C(NCC1CCCO1)/C(=C\c1ccc(Cl)cc1)NC(=O)c1ccccc1 (stereo not drawn)	i
CC(=O)c1c(C)nc2ccc(Cl)cn12	0.5

Assay outcomes as filed in PubChem BioAssay.
